Compound activity from PubChem.
GIV Gai3 FP: blocks GIV peptide binding to rat Galpha-i3; AID 1224905; hit rate 0.42% among 210,000; Galpha-i3/FITC-GIV peptide fluorescence polarization, 90 min; hits give low values; scaled: aluminum fluoride 0%, vehicle 100%; P08753; percent of control (FP), % (test concentration not listed);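 active = replicate mean at 85% of control or lower, very high polarization wells dropped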;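 note: wells of about 15 µL received 100 nL stock; the first replicate is given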
Target sequence (P08753 whole entry, looked up): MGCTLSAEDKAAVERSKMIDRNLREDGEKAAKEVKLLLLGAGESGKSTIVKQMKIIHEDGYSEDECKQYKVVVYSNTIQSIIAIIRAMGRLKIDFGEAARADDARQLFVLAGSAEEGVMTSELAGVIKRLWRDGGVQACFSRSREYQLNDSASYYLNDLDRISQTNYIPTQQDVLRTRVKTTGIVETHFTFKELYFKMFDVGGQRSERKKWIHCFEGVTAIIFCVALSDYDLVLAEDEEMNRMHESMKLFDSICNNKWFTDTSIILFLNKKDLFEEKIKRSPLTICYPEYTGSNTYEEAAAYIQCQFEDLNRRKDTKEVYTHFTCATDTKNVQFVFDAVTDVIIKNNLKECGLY
Sa growth 42C: S. aureus growth inhibition; S. aureus RN4220 growth, OD600, 20 h, 42 °C; hits give low values; relative growth, % (concentration not given with the values); hit rate 0.53% among 170,000; AID 720641;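 active = growth at 42 °C up to 50% and 20 or more points under that at 30 °C, or under 10% at both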;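 note: 300 nL library stock went into each well; scaled to the means of positive and negative controls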
HCMV NEC inh: disrupts HCMV UL50-UL53 complex binding. HTRF UL50-UL53 interaction, normalized percent inhibition. inhibition, % (concentration not given with the values). hit rate 0.15% among 190,000;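 active = both replicates at 50% or more, plus weaker picks with an unusually low signal ratio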;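 note: stock transfer was 100 nL into about 20 µL; 0% = negative control wells and 100% = wells with untagged competitor protein; inactives centre near -12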
Sa growth 42C second temp: also measured in Sa growth 42C; calls as there; relative growth, %; measured here: growth at 30 °C;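 optical density after 20 h as mean of two plates; 100% = untreated growth and lower means inhibition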
Active calls of the source: *; . = no result given; & = joins results of further samples.

SMILES | GIV Gai3 FP | Sa growth 42C | Sa growth 42C second temp | HCMV NEC inh
Cc1ccc(NC2=CC(c3ccccc3F)N(c3ccc(C)cc3)C2=O)cc1 (centres undefined) | 104 | 88 | 87 | -28
CSc1nc(-c2ccccc2)nc2c1CCCC2 | . | 95 | 74 | -15
CC1(C)C2CC=C(COCC(O)CNCC3COc4ccccc4O3)C1C2 (centres undefined) | . | 126 | 96 | -2
S=C(Nc1ccccc1Cl)N1CCCCC1 | 103 | 114 | 73 | -3
CCC1CCCCN1C(=O)c1cc(C)no1 (centres undefined) | 98&103 | 97 | 87 | -17&-23
COc1ccc(C2CC(=O)Nc3ncnn32)cc1 (centres undefined) | 101 | 84 | 82 | -24
COC(=O)CN1C(=O)CSc2ccc(S(=O)(=O)Nc3cccc(C)c3)cc21 | 98 | 96 | 86 | .
Cc1ccc2c(c1)sc1nc(=O)n(-c3cccc(Cl)c3)c(=O)n12 | 108 | 97 | 86 | -32
CCc1ccc(C2c3c(oc4cc(C)c(C)cc4c3=O)C(=O)N2c2nc(C)c(C(=O)OC)s2)cc1 (centres undefined) | 101 | 91 | 96 | -1
Cc1cn2c(=O)cc(COC(=O)COc3ccc(C)c(C)c3)nc2s1 | 109 | 114 | 86 | .
Nc1c(C(=O)c2cccs2)sc2nc3c(cc12)CCCC3 | 109 | 109 | 91 | -9
Cc1ccc(Cn2ncn3c(cc4ccccc43)c2=O)cc1 | 108 | 96 | 93 | 2
Fc1ccc(-c2cnc(CN3CCCCC3c3nc4ccccc4s3)o2)cc1 (centres undefined) | . | 65 | 75 | -7
CC(C)Oc1ccccc1C1CC(=O)NC2=C1C(=O)CC(C)(C)C2 (centres undefined) | 102 | . | . | -11
COC(=O)C1=C(N)OC2=C(C(=O)CC(C)(C)C2)C1c1ccc(C(=O)OC)cc1 (centres undefined) | . | 98 | 102 | -9
CCOC(=O)Cn1cnc2c(nnn2Cc2ccccc2F)c1=O | 106 | 99 | 101 | 4
COc1ccc2oc(=O)c(-c3nc4ccccc4[nH]3)cc2c1 | 106 | 104 | 94 | -13
CCOC(=O)N1CCN(C(=O)c2ccc(N(Cc3ccccc3)S(C)(=O)=O)cc2)CC1 | 102 | 105 | 96 | -7
Cn1c(SCC(=O)N2c3ccccc3Sc3ccccc32)nnc1-c1ccco1 | 100 | 110 | 94 | 4
CCC(C)(C(=O)NC1CCCCC1)N(Cc1ccco1)C(=O)Cc1cccs1 (centres undefined) | 99 | 79 | 88 | 6
CC(C)(C)NC(=S)N/N=C1/CCCc2occc21 | 103 | 63 | 58 | -25
Cc1cc(C)c(/C=C/c2onc(C)c2S(=O)(=O)N2CCC(C(=O)NCc3ccccc3Cl)CC2)c(C)c1 | 104 | 91 | 98 | .
CC(C)(C)c1ccc(S(=O)(=O)N2CCC(O)(c3ccc(Cl)cc3)CC2)cc1 | 105 | 98 | 87 | -20
N#CCC(=O)Nc1ccco1 | . | 105 | 84 | -41

A draw from above in order of molar mass, highest first:
SMILES | GIV Gai3 FP | Sa growth 42C | Sa growth 42C second temp | HCMV NEC inh
Cc1cc(C)c(/C=C/c2onc(C)c2S(=O)(=O)N2CCC(C(=O)NCc3ccccc3Cl)CC2)c(C)c1 | 104 | 91 | 98 | .
CCc1ccc(C2c3c(oc4cc(C)c(C)cc4c3=O)C(=O)N2c2nc(C)c(C(=O)OC)s2)cc1 (centres undefined) | 101 | 91 | 96 | -1
CCOC(=O)N1CCN(C(=O)c2ccc(N(Cc3ccccc3)S(C)(=O)=O)cc2)CC1 | 102 | 105 | 96 | -7
Cn1c(SCC(=O)N2c3ccccc3Sc3ccccc32)nnc1-c1ccco1 | 100 | 110 | 94 | 4
COC(=O)CN1C(=O)CSc2ccc(S(=O)(=O)Nc3cccc(C)c3)cc21 | 98 | 96 | 86 | .
CCC(C)(C(=O)NC1CCCCC1)N(Cc1ccco1)C(=O)Cc1cccs1 (centres undefined) | 99 | 79 | 88 | 6
COC(=O)C1=C(N)OC2=C(C(=O)CC(C)(C)C2)C1c1ccc(C(=O)OC)cc1 (centres undefined) | . | 98 | 102 | -9
Cc1cn2c(=O)cc(COC(=O)COc3ccc(C)c(C)c3)nc2s1 | 109 | 114 | 86 | .
Cc1ccc2c(c1)sc1nc(=O)n(-c3cccc(Cl)c3)c(=O)n12 | 108 | 97 | 86 | -32
CCOC(=O)Cn1cnc2c(nnn2Cc2ccccc2F)c1=O | 106 | 99 | 101 | 4
Nc1c(C(=O)c2cccs2)sc2nc3c(cc12)CCCC3 | 109 | 109 | 91 | -9
COc1ccc2oc(=O)c(-c3nc4ccccc4[nH]3)cc2c1 | 106 | 104 | 94 | -13
Cc1ccc(Cn2ncn3c(cc4ccccc43)c2=O)cc1 | 108 | 96 | 93 | 2
CC(C)(C)NC(=S)N/N=C1/CCCc2occc21 | 103 | 63 | 58 | -25
N#CCC(=O)Nc1ccco1 | . | 105 | 84 | -41

Further results follow:
SMILES | GIV Gai3 FP | Sa growth 42C | Sa growth 42C second temp | HCMV NEC inh
COc1ccc(NC(=O)Cn2c(=O)n(CCCCC(=O)NC(C)C)c(=O)c3ccccc32)cc1 | 98 | . | . | -27
COCCn1c(SC)nc2c(c1=O)SCC2 | 105 | 96 | 95 | -26
Cc1ccccc1N1C(=O)C(Oc2ccc(Cl)cc2)C1CNCCc1ccccc1 (centres undefined) | 104 | 96 | 58 | .
CCOCCn1ccc2c(OCC(N)=O)cccc2c1=O | 102 | 93 | 87 | -16
O=C(O)c1ccc2ncsc2c1 | . | 101 | 72 | 71*
O=C(Nc1cc(F)ccc1F)c1cncc(NS(=O)(=O)c2ccc(Br)cc2)c1 | 101 | . | . | -13
Cc1[nH][nH]c(=O)c1C=Nc1ccc(O)c(C(=O)O)c1 | 88 | 87 | 69 | 4
CCCSc1nnc(-c2cccc(S(=O)(=O)N(C)C)c2)n1-c1cccc(OC)c1 | . | 79 | 92 | -23
CCOc1ccc(S(=O)(=O)N/N=C(\C)c2ccc3c(c2)OCO3)cc1 | . | 104 | 99 | 2
Cc1ccc(-c2cc(C(=O)O)n(Cc3ccccc3)n2)cc1 | 102 | 98 | 97 | -15
COc1ccc(CCNC(=O)c2cc(-c3ccc(C)cc3)nc3n[nH]c(-c4ccccc4)c23)cc1OC | 109 | 119 | 85 | .
O=C1CC(c2ccco2)CC(O)=C1C=NCCN1CCN(C(=O)Nc2ccc(Cl)cc2)CC1 (centres undefined) | 105 | 115 | 104 | -9
O=C(CCCN1C(=O)c2ccccc2C1=O)Nc1nccs1 | 106 | 96 | 81 | -28
COC(=O)c1sccc1NC(=O)C1CCCN(c2nc3cccnc3s2)C1 (centres undefined) | 108 | . | . | -15
COc1ccc(S(=O)(=O)NCC(c2ccco2)N2CCN(c3ccc(F)cc3)CC2)cc1 (centres undefined) | 96 | 100 | 89 | .
CCOC(=O)c1c(C)oc2c(Cl)cc(NS(=O)(=O)c3ccc(Br)cc3)cc12 | 107 | . | . | -24
Cc1c(NS(=O)(=O)c2ccc(Cl)cc2)c(=O)n(-c2ccccc2)n1C | 107 | 121 | 88 | -24
S=C(c1ccc(N2CCCC2)c(Br)c1)N1CCOCC1 | 109 | 106 | 100 | 2
Cc1ccccc1Nc1cc(C(=O)NCc2cccs2)c2ccccc2n1 | 101 | 103 | 91 | 0
CC1CCCCN1c1ncccc1C(=O)N1CCCC1 (centres undefined) | 103 | 94 | 80 | 8
COc1ccc(NC(=O)c2cc(NC(=O)C3CCCCC3C(=O)O)ccc2N2CCOCC2)cc1 (centres undefined) | 103 | 116 | 94 | -14
COc1ccc(N2CCN(C(=O)Nc3ccccc3Cl)CC2)cc1 | 104 | 108 | 100 | 13
Cc1ccc(C2=N/C(=C\c3ccc(-c4cccc([N+](=O)[O-])c4)o3)C(=O)O2)cc1[N+](=O)[O-] | 104 | . | . | -18
CCC(Sc1nc2sc(C(=O)OC)c(C)c2c(=O)n1N)C(=O)NCC1CCCO1 (centres undefined) | 98 | 97 | 87 | -18
COc1ccc(CCNC(=O)c2nc3ccccc3c(=O)[nH]2)cc1OC | 100 | 86 | 87 | -10
COc1cc2c(cc1OC)C(COc1ccc3c(C)cc(=O)oc3c1)N(C(=O)c1ccc(C)c(C)c1)CC2 (centres undefined) | 102 | 94 | 89 | -4
CC(=O)c1ccc(N2CCN(c3ncnc4onc(-c5ccc(Cl)cc5)c34)CC2)cc1 | 105 | 99 | 91 | -27
CCc1ccc(NC(=O)CN2C(=O)C3(SCC(=O)N3c3ccccc3)c3ccccc32)cc1 (centres undefined) | 104 | 100 | 108 | .
Cn1c(=O)c2cc(C(=O)N(Cc3cccs3)C3CCCC3)sc2n(C)c1=O | 111 | . | . | -24
Cc1cnc(NC(=O)CCCSc2ccccc2)s1 | . | 115 | 90 | -17
N#Cc1c(NC(=O)c2ccc3ncsc3c2)sc2c1CCC2 | 105 | 98 | 73 | -15
O=C(CSc1ncnc2nc(N3CCCC3)sc12)Nc1ccc2c(c1)OCO2 | 103 | . | . | 13
CC(=O)N(C)c1ccc(Cl)cc1Cl | 96 | 95 | 51 | -2
COc1ccc(NC(=O)CSc2nnc(-c3nnn(-c4ccc(F)cc4)c3C)o2)cc1 | 103 | 89 | 85 | .
Cn1cccc1CC(=O)N1N=CCC1(O)C(F)(F)F (centres undefined) | . | 119 | 94 | -23
CCOc1cc(CN2CCN(C)CC2)ccc1OCC(=O)Nc1cccc(C(F)(F)F)c1 | . | 111 | 93 | -32
Cc1ccc(C)n1-c1cc(S(=O)(=O)N2CCOCC2)ccc1N1CCCC1 | . | 115 | 97 | -13
CC(C(=O)c1ccccc1)C1(O)C(=O)N(CCc2ccccc2)c2ccccc21 (centres undefined) | 100 | 81 | 38 | -16
CC1CN(CC(=O)N2CCC(C(N)=O)CC2)c2ccccc2S1 (centres undefined) | 115 | . | . | -12
COc1ccc2c(c1)CCC(=O)C2 | 102 | 117 | 93 | -38
Cc1occc1-c1nnc(SCC(=O)NC(C)c2nc3ccccc3[nH]2)o1 (centres undefined) | 100 | . | . | -9
Cc1oc(C(C)(C)C)cc1-c1cc(NC(=O)C2CCC2)n(-c2ccc(I)cc2)n1 | 110 | 99 | 94 | -26
COC(=O)c1cc2ccsc2n1C(C)C(=O)Nc1ccc(F)cc1 (centres undefined) | 98 | . | . | 0
Cn1cccc1CN1CCN(C(=O)c2cccc(F)c2)CC1 | 100 | 103 | 81 | -8
CC[N+](C)(C)Cc1ccco1 | 102 | 107 | 85 | -2
COc1ccccc1NC(=O)CCc1c(C)nc2nc(CNC(=O)OC(C)(C)C)nn2c1C | 105 | 104 | 84 | -8
O=C(NCc1ccc(F)cc1)c1cnc(N2CCOCC2)c2ccccc12 | 106 | 97 | 92 | .
O=C(O)c1ccc(N=NN2CCCC2)cc1 | . | 89 | 85 | -13
O=C1N(Cc2ccccc2)C(c2ccccc2)C1(F)F (centres undefined) | . | 101 | 107 | 13
O=c1oc2ccc(Cl)cc2cc1-c1nnc(-c2ccc([N+](=O)[O-])cc2)o1 | 100 | . | . | 11
COc1ccc(NC(=O)Cn2nnc3sc4c(c3c2=O)CCCC4)cc1 | 102 | 95 | 93 | -31
CCOC(=O)Cn1cc(Br)c(=O)[nH]c1=O | 100 | 91 | 82 | -21
CC(=O)N/N=C(\C)c1ccc2c(c1)OCCO2 | . | 83 | 84 | -32
CCn1cc(C(=O)N2CCN(c3ccccc3)CC2)c(=O)c2cc(S(=O)(=O)N3CCCCC3)ccc21 | 103 | 92 | 88 | -24
COc1ccc(C2CC(=O)C3=C(C2)Nc2ccccc2NC3c2ccc(C(F)(F)F)cc2)cc1OC (centres undefined) | 95 | . | . | -21
COc1ccc(Cl)cc1NC(=O)c1cccn1-c1cccnc1 | 105 | . | . | -23
CC(C)CCNC(=O)CSc1nc(-c2ccccc2)no1 | 107 | . | . | -2
Cc1ccc(Nc2c(-c3ccco3)nc3ccccn23)cc1 | 102 | 83 | 91 | -19
N#CC(C#N)=NNc1ccc(F)cc1C(F)(F)F | 104 | -0.7* | -0.8* | -20
CCCCOC(=O)COc1ccc2c(=O)c(Oc3ccccc3Br)coc2c1 | 105 | . | . | -7
Following part.
SMILES | GIV Gai3 FP | Sa growth 42C | Sa growth 42C second temp | HCMV NEC inh
CC1CCN(C(=O)CN(c2ccccc2)S(C)(=O)=O)CC1 | 97 | 95 | 77 | 14
CC1CCN(C(=O)c2nn(C)c3c2CCc2sccc2-3)CC1 | 103 | 101 | 76 | -33
CCN(C(=O)Cc1ccccc1OC)c1nnc(-c2ccncc2)s1 | 98 | 94 | 38 | -5
CC(C)(C)c1cc2nc(-c3ccccc3)cc(=O)n2[nH]1 | 104 | 120 | 85 | 4
CCOC(=O)C(Cc1c[nH]c2ccccc12)NC(=O)COc1ccc(Br)cc1 (centres undefined) | 101 | . | . | -6
CCCOc1ccc2nc(NC(=O)OC)sc2c1 | 102 | . | . | -2
O=C1CNC(c2ccc(Cl)cc2Cl)N1O (centres undefined) | 103 | 103 | 118 | 12
Cc1noc(C)c1CN1c2cccc3cccc(c23)S1(=O)=O | . | 95 | 95 | -52
CCc1cccc2c(C(C(=O)c3ccccc3)c3c[nH]c4c(CC)cccc34)c[nH]c12 | 103 | 130 | 92 | .
O=C(NC1CCCc2ccccc21)C1CCN(S(=O)(=O)c2cccs2)CC1 (centres undefined) | 104 | 94 | 91 | .
O=C(NCCCN1CCC(Cc2ccccc2)CC1)c1noc2ncnc(N3CCCC3)c12 | 106 | 106 | 93 | -9
CCOc1ccc(N/C=C2/CCCC(C)C2=O)cc1 (centres undefined) | 107 | 99 | 75 | .

Individual results from above:
O=C(NC1CCCc2ccccc21)C1CCN(S(=O)(=O)c2cccs2)CC1 (centres undefined) in GIV Gai3 FP is entered as 104
CCCOc1ccc2nc(NC(=O)OC)sc2c1 in GIV Gai3 FP is entered as 102

Hits appear at their usual frequency. Share with any hit: about 0.82%.
